# RN4220 kill = S. aureus RN4220 growth inhibition; AID 1259311; 330,000 compounds, 0.33% hits; inhibition, % (concentration not given with the values); OD600, 16 h;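 active = z-score of -3 or lower and OD600 up to 0.18 on both plates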;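 note: plate controls were untreated cells for no effect and reference antibiotic for full effect; stock transfer was 100 nL into about 80 µL; one replicate is shown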
# BJeLR lethal = BJeLR cell viability loss. BJeLR (HRASV12) viability, CellTiter-Glo ATP luminescence, 48 h; reference of the scale not given here. inhibition, % (concentration not given with the values). 300,000 compounds, 0.17% hits. AID 1554;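 active = replicate mean above 50%; inconclusive = above 50% but judged a plate artefact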;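 note: 50 nL library stock added to about 25 µL; numbers are from one replicate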
# Sa ugtP lethal = compounds lethal to S. aureus RN4220 ugtP deletion mutant | OD600 growth, 16 h; some inactives read as strong as hits | growth inhibition, % (no concentration beside the values) | 330,000 compounds, 0.54% hits;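 active = z-score under -3 and OD600 up to 0.15 on both plates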;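 note: plate controls were untreated wells for no effect and antibiotic for full effect; wells of about 80 µL received 100 nL stock; the first replicate is given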
# PrP UTR inh = inhibition of PrP 5' UTR reporter expression; cell-based PrP 5' UTR mRNA reporter, plate reader; 340,000 compounds, 0.35% hits; AID 488862; inhibition, % (no concentration beside the values);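 active = every replicate at 50% or more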;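 note: 0 = median of the neutral control wells; tested in H4 reporter cells; numbers are from one replicate; inactives centre near -14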
# Autofluor counter = counter-screen for toxin protease inhibitors: compound fluorescence. 360,000 compounds, 3.1% hits. AID 624483. fluorescence intensity (test concentration not listed). compound autofluorescence counterscreen, microsphere flow cytometry; active compounds read high;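 active = at least 3 SD above the mean of all compounds, about 16000 in these data; inconclusive = too few beads counted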;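 note: 100 nL of 1 mM stock went into each well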
# Mtb hypoxia rep = reduces hypoxia-regulated biosensor signal in M. tuberculosis. M. tuberculosis hypoxia-regulated fluorescent reporter, fluorescence. fluorescence inhibition, % (test concentration not listed). 300,000 compounds, 0.1% hits;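 active = 35 to 45% if threefold the growth effect, above 45% if 1.5-fold the growth effect; inactive = the rest, general growth blockers included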;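 note: wells of about 50 µL received 100 nL stock; 0% = vehicle wells and 100% = reference inhibitor wells; whole bacteria with a GFP reporter of the hypoxia response; strong numbers were not always called active; many hits fall short of the cut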
# Mtb hypoxia rep growth = recorded beside Mtb hypoxia rep, whose call it bears; growth inhibition, %; measured here: M. tuberculosis growth (absorbance);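 0% = vehicle and 100% = reference antibiotic; read after six days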
# * = called active by the depositor; ? = inconclusive; nt = no result given; & = joins results of further samples.
SMILES,RN4220 kill,BJeLR lethal,Sa ugtP lethal,PrP UTR inh,Autofluor counter,Mtb hypoxia rep,Mtb hypoxia rep growth
Cc1noc(C)c1COc1ccccc1C(=O)N1CCN(S(=O)(=O)c2cccc(Cl)c2)CC1,9.2,nt,11,-25,6568,4,-13
O=C(O)c1ccccc1C=NNC(=O)c1cc(-c2ccco2)nc2ccccc12,26,nt,-1,nt,nt,10,6
Cc1cccc(NC(=O)c2cc3ccccc3o2)c1,2.9,10,-5,-58,9636,7,1
CCOC(=O)c1ccccc1NC(=O)CSc1nc(N)cc(N)n1,1.0,-2,13,-2,2831,nt,nt
COc1ccc(C(N)=NOC(=O)c2cccc([N+](=O)[O-])c2)cc1,1.8,nt,-2,nt,nt,3,7
O=C1C2C3C=CC(C4CC34)C2C(=O)N1c1cccc2ccccc12 (stereo not drawn),4.7,3,4,-17,3280,-3,-12
CCOC(=O)C1C2COc3ccc(Br)cc3C2N2C(=O)c3cc(F)c(F)cc3NC(=O)[C@@]12C (stereo partly drawn),-5.5,nt,-30,nt,nt,-4,0
CCCn1nnnc1SCC(=O)Nc1ccc(F)cc1,0.7,8,-2,-10,4429,nt,nt
C=CCOc1ccc(C[C@H](N)C(=O)NC[C@H]2O[C@@H](n3cnc4c(N)ncnc43)[C@H](O)[C@@H]2O)cc1,0.6,nt,2,-12,3431,-6,2
Cc1ccccc1NC(=S)NCC1CCN(C(C)c2ccccc2)C1 (stereo not drawn),1.4,-5,-6,-36,3809,-10,-18
CN(C)c1ccc(NC(=O)C(=O)NCCOc2ccccc2)cc1,1.3,-3,-12,-7,4245,-5,6
COc1ccc(C(=O)Nc2ccc(Br)cn2)cc1S(=O)(=O)N1CCOCC1,1.7,nt,1,-3,4212,10,8
CCCCOc1ccc(C(O)C(CN2CCOCC2)c2ccccc2)cc1 (stereo not drawn),30,9,4,-16,4887,7,1
COC(=O)CC1=NN(c2ccccc2)C(=O)/C1=C\c1ccc(OC)cc1,3.4,18,1,-14,2670,19,0
Cc1ccc(C(=O)Nc2nc3ccc(S(C)(=O)=O)cc3s2)cc1C,-0.5,3,7,-25,2996,2,-5
CC1c2cc3c(cc2CCN1C(=O)c1ccc(Cl)cc1)OCCCO3 (stereo not drawn),2.6,6,10,-23,4659,6,0
Cc1ccccc1OCC(=O)OCC(=O)Nc1ccc(Cl)cn1,4.5,nt,6,nt,5111,7,0
N/C(=N\N=C\c1ccc(O)c(O)c1)c1nonc1N,nt,5,nt,-79,4628,nt,nt
O=C(NCc1cccs1)c1cc2c(s1)-c1ccccc1OC2,-4.1,-9,13,-30,4335,6,6
CC(C(=O)N(C)Cc1cccc(F)c1)N1CCN(S(=O)(=O)c2ccc3c(c2)OCCCO3)CC1 (stereo not drawn),6.3,nt,10,-18,4794,1,0
COc1ccc(C2C=CCN(C(=O)Oc3ccccc3)CC(=O)N2Cc2ccc(F)cc2)cc1 (stereo not drawn),3.6,nt,7,nt,nt,0,2
COc1ccc(C=NNC(=O)c2sccc2OCc2ccc(F)cc2)cc1OC,6.3,nt,10,nt,nt,8,-2
CS(=O)(=O)c1ccc(C(=O)Nc2ccccc2Cl)cc1,-0.5,12,2,-24,3999,4,4
C/C(=N\OCC(=O)Nc1ccccc1Br)c1cccs1,nt,-1,nt,-48,2482,nt,nt
O=C(NNC(=O)c1ccco1)c1cccc([N+](=O)[O-])c1,4.0,1,0,-6,4513,6,9
Cc1ccc(Nc2nc(CSc3nnnn3C)cs2)cc1,2.9,-2,5,-46,9585,8,1
Cc1ccc(OCC(=O)Nc2ccc(S(=O)(=O)N3CCOCC3)cc2)c(C)c1,-1.3,3,6,-6,6101,1,3
COc1ccc(NC(=O)CCc2nc(-c3ccccc3F)no2)cc1,-1.9,8,6,-21,3803,nt,nt
CCN(CC)C(=O)CSc1ncnc2c1nnn2-c1ccc(F)cc1,6.0,-11,-4,-10,2883,7,0
COc1ccc(N(CC(=O)Nc2cccnc2)S(=O)(=O)c2ccccc2)cc1OC,0.8,-13,2,-12,4025,-4,5
O=C(Nc1ccncc1)c1ccc([N+](=O)[O-])cc1Cl,7.6,0,-2,-22,3707,-5,7
O=C(CNCc1ccco1)Nc1cc(S(=O)(=O)N2CCOCC2)ccc1N1CCCC1,2.8,-3,10,-34,?,5,-3
O=C(CSc1ncnc2[nH]ncc12)Nc1cccc(Oc2ccccc2)c1,43,3,-4,7,3450,6,-2
O=C(CN1CCc2ccccc2C1)Nc1cccc(S(=O)(=O)N2CCOCC2)c1,1.6,nt,-1,-20,nt,0,1
O=C(O)C1=C(OCc2ccccc2)C(=O)NCC1,6.2,3,3,-8,3454,4,-2
COc1ccc(N=C2S/C(=C\c3cc(C)n(C)c3C)C(=O)N2C)cc1,nt,-2,nt,-2,2927,nt,nt
NC(=O)Cn1nc2sc3ccccc3n2c(=O)c1=O,4.1,-2,8,nt,nt,14,14
O=C(NC1CC1)C1=CC(C2CCCCC2)CC(OCCCCO)O1 (stereo not drawn),5.3&4.4,nt,3&6,nt,nt,3&1,-12&9
CCN(CC)C(=O)[C@H]1CC(CC(=O)NCc2cccc(C(F)(F)F)c2)C(=O)N2CCc3c([nH]c4ccc(OC)cc34)[C@]12C (stereo partly drawn),0.4,nt,3,-7,3866,-13,-3
CN(Cc1ccccc1Cl)C(=O)CNC(=O)C12CC3CC(CC(C3)C1)C2,3.4,nt,1,-14,3601,8,5

# Random excerpt: two compounds from above.
SMILES,RN4220 kill,BJeLR lethal,Sa ugtP lethal,PrP UTR inh,Autofluor counter,Mtb hypoxia rep,Mtb hypoxia rep growth
Cc1ccccc1NC(=S)NCC1CCN(C(C)c2ccccc2)C1 (stereo not drawn),1.4,-5,-6,-36,3809,-10,-18
O=C(O)C1=C(OCc2ccccc2)C(=O)NCC1,6.2,3,3,-8,3454,4,-2

# Continuation:
SMILES,RN4220 kill,BJeLR lethal,Sa ugtP lethal,PrP UTR inh,Autofluor counter,Mtb hypoxia rep,Mtb hypoxia rep growth
COc1ccc(C(=O)NCCCN2CCN(CCCNC(=O)c3ccc(OC)c(OC)c3)CC2)cc1OC,4.3,nt,6,-27,6171,14,-3
COc1cccc(NC(=O)Cn2c(-c3cncs3)nc3ccccc32)c1,1.9,-9,-6,-17,4644,nt,nt
COc1ccc(-c2cn3c(C)c(C(=O)N4CCN(c5ccccc5F)CC4)sc3n2)cc1,1.9,3,2,-12,5024,-3,-11
N#CCC(=O)N/N=C/c1cn(Cc2ccc(Cl)cc2Cl)c2ccccc12,nt,-2,nt,-14,2830,nt,nt
Cc1cc(C)cc(NS(=O)(=O)c2ccc3[nH]cc(C(=O)NCc4ccco4)c(=O)c3c2)c1,6.5,23,5,-2,4602,11,3
C=CCSc1nnc2nc3c(nn12)c1cc(C)ccc1n3CC=C,5.9,-1,-6,8,4210,nt,nt
CCCC(=O)OCC(=O)Nc1ccc2[nH]c(=O)[nH]c2c1,2.0,16,5,-21,4226,10,4
COc1ccc(C(=O)NNc2ccccc2)cc1OC,-1.5,nt,-1,-23,11938,-13,2
O=C1NC(=Nc2ccccc2)S/C1=C\c1ccccc1,2.4,6,-15,-49,3818,4,14
COc1ccc(C(CNC(=O)c2c(C)nn(Cc3ccc(C)cc3)c2Cl)N2CCOCC2)cc1 (stereo not drawn),5.6,nt,8,-14,2713,-2,-5
Cc1ccc(C(CNC(=O)Nc2cccc(C)c2)N2CCN(C)CC2)cc1 (stereo not drawn),-0.9,12,-2,-11,5727,-7,4
Cc1nsc2c1ccc1ccccc12,5.2,5,4,-12,1981,-5,7
CC(C)CC(=O)Nc1ccc(N2CCN(C(=O)c3cccs3)CC2)cc1,-1.1,-3,13,-15,3162,4,6
O=c1c2ccccc2c2ccccc2c(=O)n1-c1ccccc1,-0.6,9,6,-24,2210,nt,nt
Cc1ccc(OCc2nc(C#N)c(N3CCCC3)o2)cc1,3.5,0,23,-10,2802,17,10
CCNc1ccc(S(=O)(=O)N(C)C)cc1NCC(=O)Nc1ccc(F)c(Cl)c1,-5.2,24,-14,16,11373,-4,11
Cc1ccc(NC(=O)c2cc(N3C(=O)C4CC=CCC4C3=O)ccc2N2CCCCC2)cc1 (stereo not drawn),2.1,4,5,-14,4187,7,6
CCN(C[C@H]1N[C@@](Cc2ccccc2)(C(=O)OC)[C@H]2C(=O)N(Cc3ccccc3)C(=O)[C@@H]12)S(=O)(=O)c1ccc(C)cc1,1.8,nt,2,8,3661,-3,7
CC(C)n1cc(CN2CCC(n3nccc3NC(=O)C3CCCC3)CC2)cn1,-1.8,-2,8,-11,5445,5,4
NC(=S)NNC(=O)C12CC3CC(CC(C3)C1)C2,nt,-8,nt,-14,2029,nt,nt
CC(=O)N1c2ccccc2S(=O)(=O)c2c1ccc1ccccc21,2.7,nt,7,-1,4186,24,13
Cc1ccc(C(=O)NN(CCC#N)C2=NS(=O)(=O)c3ccccc32)cc1,4.2,-1,8,-101,4175,4,4
Cc1ccc(OCCC(=O)OCC(=O)Nc2ccc3c(c2)OCCO3)cc1,2.6,-3,7,1,4796,4,-1
CSc1nnc(NC(=O)c2nc(S(=O)(=O)Cc3ccccc3F)ncc2Cl)s1,nt,7,nt,-11,5235,nt,nt
CC1CCc2sc(C(=O)OCC(=O)NCc3ccccc3)cc2C1 (stereo not drawn),5.3,4,3,-4,2589,16,-2
COC(=O)C1=C(C)N(C)C(=O)NC1c1cc2c(cc1[N+](=O)[O-])OCO2 (stereo not drawn),2.4,2,5,-21,3228,1,2
CN(CC(=O)Nc1nccs1)S(=O)(=O)c1ccc(F)cc1,4.1,6,10,-11,8164,1,4
O=C(NC(Cc1c[nH]c2ccccc12)c1nnc2n1CCCCC2)c1ccccc1Cl (stereo not drawn),5.5,0,10,-12,9573,13,6
CCOc1ccc(C(=O)C[n+]2ccc(C(=O)NCCO)cc2)cc1,1.1,6,2,-5,3617,9,5
Cc1ccccc1OCCC(=O)OCC(=O)Nc1ccc(C(N)=O)cc1,4.2,0,-5,-35,4364,5,-5
O=C1Nc2ccccc2C1C(C[N+](=O)[O-])c1ccccn1 (stereo not drawn),3.8,1,8,-13,3115,13,1
CCS(=O)(=O)Nc1ccc(C(=O)CC2(O)C(=O)Nc3ccc(Br)cc32)cc1 (stereo not drawn),3.7,-3,0,-12,2067,nt,nt
CCOC(=O)N1CCN(Cc2nc3ccc([N+](=O)[O-])cc3c(=O)n2-c2ccccc2F)CC1,1.3,5,1,4,3120,-13,4
CCOC(=O)c1cccnc1SCC(=O)N(C)c1ccccc1,3.7,4,3,7,22147*,4,6
Cc1nnc(SCc2cccc([N+](=O)[O-])c2)s1,2.2,11,2,-20,2692,7,3
CCOc1ccc(C(O)C(CN2CCOCC2)c2ccccc2)cc1 (stereo not drawn),0.3,-4,-7,-10,2832,8,7
NC1=NCC(Cc2ccc(O)cc2)N1CCc1cccc(F)c1 (stereo not drawn),7.1&3.7,nt,-1&4,nt,nt,15&0,5&9
CC1CCC2C(=O)N3C(CCC(C)C3c3cccc(N4CCCC4=O)c3)C(=O)N2C1c1cccc(N2CCCC2=O)c1 (stereo not drawn),5.7,nt,5,nt,nt,-4,-1
Cc1ccc(-n2c(Cc3cccn3C)nnc2SCC(N)=O)cc1,2.3,-2,4,nt,10849,10,12
COc1ccc(CC(=O)Nc2ccc(N3CCN(c4ccc(OC)cc4)CC3)c(C#N)c2)cc1,3.2,-2,-8,0,2291,nt,nt

# Complete entries from above. Order of screens: RN4220 kill	BJeLR lethal	Sa ugtP lethal	PrP UTR inh	Autofluor counter	Mtb hypoxia rep	Mtb hypoxia rep growth
# Profile of `NC1=NCC(Cc2ccc(O)cc2)N1CCc1cccc(F)c1` (stereo not drawn) : 7.1&3.7	nt	-1&4	nt	nt	15&0	5&9
# Profile of `Cc1nnc(SCc2cccc([N+](=O)[O-])c2)s1` : 2.2	11	2	-20	2692	7	3

# New compounds follow.
SMILES,RN4220 kill,BJeLR lethal,Sa ugtP lethal,PrP UTR inh,Autofluor counter,Mtb hypoxia rep,Mtb hypoxia rep growth
Cc1nnc(SCc2cc(=O)n3[nH]cnc3n2)s1,-1.2,-4,12,-12,3307,nt,nt
COc1ccccc1N(CCN1C(=O)c2cccc3cccc(c23)C1=O)C(=O)c1ccncc1,23,-6,2,nt,nt,-1,8
CN(N=Cc1ccc(Cl)cc1Cl)c1ncc(Cl)cc1C(F)(F)F,-1.2,nt,54,nt,nt,0,-5
C/C(CC(=O)NCc1ccc(F)cc1)=N\NC(N)=S,nt,-4,nt,-15,3516,nt,nt
COc1ccc(CCn2c(C)cc(C(=O)CSc3nnnn3C)c2C)cc1,-9.8,-1,-5,-8,3247,6,8
O=C1c2ccccc2-c2nc3ccccc3n21,1.1&-10,-2&3,7&-5,-2&-17,4331&3222,2&-6,7&8
